LYPLA1 counter = LYPLA1 inhibitors, primary screen, counter-screen for PME1 inhibitor project, biochemical, fluorescence polarization, FP-Rh probe ABPP | recombinant LYPLA1 | Acyl-protein thioesterase 1 (Homo sapiens), O75608 | inhibition, % at 5.9 µM | actives 0.16% (n = 320,000);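 active means inhibition above the mean of all tested compounds plus 3 SD, set per campaign, cut at about 14% in these data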;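 further: inhibitors block serine hydrolase probe labeling of LYPLA1 so polarization falls; 0% = enzyme with DMSO and 100% = wells lacking LYPLA1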
Target sequence (O75608 whole entry, looked up): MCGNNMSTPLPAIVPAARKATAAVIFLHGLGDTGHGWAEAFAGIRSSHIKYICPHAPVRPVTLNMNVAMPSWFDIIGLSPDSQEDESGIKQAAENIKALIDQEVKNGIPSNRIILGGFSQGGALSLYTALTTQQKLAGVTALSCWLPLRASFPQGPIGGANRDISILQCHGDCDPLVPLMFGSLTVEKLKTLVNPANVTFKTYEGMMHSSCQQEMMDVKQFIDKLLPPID
PAD4 FP inh = human PAD4 inhibitors, primary screen, biochemical, fluorescence polarization, 1536-well format. Protein-arginine deiminase type-4 (Homo sapiens), Q9UM07. recombinant PAD4, RCA probe fluorescence polarization. inhibition, % at 6.36 µM. actives 0.41% (n = 330,000);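 active means percent inhibition above a cutoff equal to the mean of all tested compounds plus 3 SD, cut at about 15% in these data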;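 further: 0% = PAD4 with RCA probe and DMSO and 100% = probe without PAD4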
LYPLA2 inh = LYPLA2 inhibitors, primary screen, counter-screen for PME1 inhibitor project, biochemical, fluorescence polarization, FP-Rh probe ABPP | recombinant LYPLA2 | Acyl-protein thioesterase 2 (Homo sapiens), O95372 | inhibition, % at 5.9 µM | actives 0.38% (n = 320,000) | AID 2177, 2009;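 active means inhibition above the screen-wide mean plus 3 SD, limit set per campaign, cut at about 26% in these data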;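 further: 0% = LYPLA2 with DMSO and 100% = wells lacking LYPLA2 enzyme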
PME-1 primary = PME-1 inhibitors via competitive probe labeling, primary screen, biochemical, fluorescence polarization, FP-Rh probe, HTS. actives 0.53% (n = 320,000). recombinant PME-1. inhibition, % at 5.9 µM. Protein phosphatase methylesterase 1 (Homo sapiens), Q9Y570;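 active means inhibition above the campaign mean of all compounds plus 3 SD, cut at about 26% in these data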;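 further: competitive labeling of PME-1 active site by serine hydrolase directed probe; 0% = PME-1 with DMSO and 100% = wells lacking PME-1 enzyme; inhibitors block probe labeling so polarization falls and inhibition rises; many of its hits are not listed in these tables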
PAFAH1B3 FP inh = PAFAH1B3 enzyme inhibitors, primary screen, biochemical, fluorescence polarization, human; Platelet-activating factor acetylhydrolase IB subunit alpha1 (Homo sapiens), Q15102; recombinant PAFAH1B3, FP-rhodamine probe; inhibition, % at 3.39 µM; actives 0.28% (n = 340,000);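 active means inhibition above the screen-wide average of all tested compounds plus 3 SD, cut at about 25% in these data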;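 further: 0% = enzyme with DMSO only and 100% = wells lacking PAFAH1B3 protein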
* = called active by the depositor; x = not tested or not shown. The list is partial; count on the stated rates, not on these rows.

Results follow in this order: LYPLA1 counter	PAD4 FP inh	LYPLA2 inh	PME-1 primary	PAFAH1B3 FP inh
CC1CCN(CC#CCOc2ccc(Cl)cc2)CC1
 : 4	-5	2	3	-2
CN1CCN(S(=O)(=O)c2cnc(Cl)c(Br)c2)CC1
 : 4	-4	-1	0	6
CN1CCN(C(=O)COc2ccc(S(=O)(=O)N(C)Cc3ccccc3)cc2)CC1
 : 1	2	4	-5	8
CC(C)c1ccccc1OCC(=O)N1CCCN(C)CC1
 : 0	1	0	-3	11
NS(=O)(=O)OC(CCc1ccccc1)C(Cl)(Cl)Cl (configuration not stated)
 : -5	-3	-2	-11	1
Cc1ccccc1NS(=O)(=O)c1ccc(OCC(=O)N2CCN(C)CC2)cc1
 : -1	-2	-4	-5	2
CCOC(=O)C1=C(NC(=S)NC(=O)c2ccccc2)c2ccccc2CC12CCCC2
 : x	x	x	x	-1
CC(C)(C)n1cc(C(=O)c2ccccc2)cc1-c1ccccc1
 : 8	-6	-4	2	-3
Cc1nc2cc(C(F)(F)F)ccc2n1C1CCN(Cc2nnnn2Cc2ccc3c(c2)OCO3)CC1
 : 0	-6	56*	7	-14
Clc1ccc(OCC#CCN2CCCC2)cc1
 : -1	-2	-3	-1	6

Grouped by structure: the entries above with sulfur
Results follow in this order: LYPLA1 counter	PAD4 FP inh	LYPLA2 inh	PME-1 primary	PAFAH1B3 FP inh
CN1CCN(S(=O)(=O)c2cnc(Cl)c(Br)c2)CC1
 : 4	-4	-1	0	6
CN1CCN(C(=O)COc2ccc(S(=O)(=O)N(C)Cc3ccccc3)cc2)CC1
 : 1	2	4	-5	8
NS(=O)(=O)OC(CCc1ccccc1)C(Cl)(Cl)Cl (configuration not stated)
 : -5	-3	-2	-11	1
Cc1ccccc1NS(=O)(=O)c1ccc(OCC(=O)N2CCN(C)CC2)cc1
 : -1	-2	-4	-5	2
CCOC(=O)C1=C(NC(=S)NC(=O)c2ccccc2)c2ccccc2CC12CCCC2
 : x	x	x	x	-1

Among those listed so far, three contain nitrogen in an aromatic ring:
Results follow in this order: LYPLA1 counter	PAD4 FP inh	LYPLA2 inh	PME-1 primary	PAFAH1B3 FP inh
CN1CCN(S(=O)(=O)c2cnc(Cl)c(Br)c2)CC1
 : 4	-4	-1	0	6
CC(C)(C)n1cc(C(=O)c2ccccc2)cc1-c1ccccc1
 : 8	-6	-4	2	-3
Cc1nc2cc(C(F)(F)F)ccc2n1C1CCN(Cc2nnnn2Cc2ccc3c(c2)OCO3)CC1
 : 0	-6	56*	7	-14

Screening results deposited in PubChem BioAssay by The Scripps Research Institute Molecular Screening Center.
